GLA inh pH 4.5: blocks human alpha-galactosidase A at pH 4.5; 230,000 tested, under 10 active; activity change, negative = inhibition, % at 105 µM; P06280; purified enzyme, 4-MU-alpha-Gal fluorescence, pH 4.5; AID 1467; inconclusive = small, poorly fitted or top-dose-only inhibition, or a rising curve; inactive = flat fitted curve, though single readings scatter; no compound was filed as active;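 note: 0% = full activity with enzyme and -100% = basal without enzyme; dose as in the result columns while the protocol names 77 µM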
Target sequence (P06280 whole entry, looked up): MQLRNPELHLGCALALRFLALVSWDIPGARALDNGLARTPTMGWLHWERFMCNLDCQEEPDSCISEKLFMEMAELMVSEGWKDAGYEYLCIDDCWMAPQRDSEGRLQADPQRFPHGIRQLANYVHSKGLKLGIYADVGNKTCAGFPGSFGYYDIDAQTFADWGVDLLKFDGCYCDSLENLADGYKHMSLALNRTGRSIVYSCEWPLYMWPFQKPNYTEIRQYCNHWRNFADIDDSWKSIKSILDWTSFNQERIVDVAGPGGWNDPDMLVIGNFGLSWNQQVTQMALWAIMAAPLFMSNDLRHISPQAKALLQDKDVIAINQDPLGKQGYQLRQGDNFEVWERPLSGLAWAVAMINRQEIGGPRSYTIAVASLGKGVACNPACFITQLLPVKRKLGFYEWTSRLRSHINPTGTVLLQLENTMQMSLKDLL
miR-21 reporter: miR-21 reporter, rising signal; AID 2288; Potency, µM (highest dose often 38.3 µM), inactives show at the top dose reporter change, positive = more light; 340,000 tested, under 10 active; HeLa miR-21 FLuc reporter, luciferase, 48 h; active = well fitted rising curve with a large enough effect; inconclusive = small, poorly fitted or top-dose-only effect; inactive = no such curve, though single readings can be large or run the other way;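 note: % of control where 0% means no effect; miR-21 action dims this reporter so a rising signal means less miR-21 action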
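Compounds were titrated across several concentrations (up to approximately 40 uM) and incubated 48 hours with HeLa miR-21-FLuc reporter cells (miR-21 target sequence downstream of FLuc, endogenous miR-21). Readout was firefly luciferase luminescence after lytic detection reagent.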
Rango dissoc inh: prevents RanGTP from dissociating the Rango-importin beta complex; Potency, µM (titrated, usually from 46.1 µM), for inactives: at the highest dose activity change, negative = inhibition; 340,000 tested, 0.071% active; Biochemical FRET Rango-importin beta, RanGTP-induced dissociation; O95149+P62826; active means falling FRET ratio curve, often poorly fitted, with flat reads before Ran was added; inconclusive means other falling curves, or compound fluorescence or quenching; inactive means flat or rising ratio curve;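 note: potency is the fitted concentration of half-maximal effect; % of control where 0% means no effect; nearly all actives have a fitted effect of over 45% in size; -100% = wells without RanGTP and RCC1; the record marks most hits as doubtful in a second field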
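Compounds preincubate 5 min with complex of recombinant Rango and importin beta in PBS with 1 mM DTT. Ran (0.6 uM) loaded with 2 mM GTP plus 0.2 uM RCC1 starts dissociation; FRET is recorded 45 min later.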
Rango complex inh: inhibitors of Rango-importin beta complex formation | Rango CFP/YFP FRET sensor + importin beta, 45 min | AID 540263 | 340,000 tested, 0.031% active | Potency, µM (doses to about 92.2 µM), for inactives: top-dose inhibition of complex formation | Q14974; active = rising FRET ratio curve, often small or poorly fitted; inconclusive = mostly compound fluorescence or quenching in the first reads; inactive = flat curves in all reads;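 note: potency is the fitted concentration of half-maximal effect; 0% = DMSO wells and 100% = buffer wells lacking importin beta; nearly all actives have a fitted effect of over 15% in size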
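Inhibition scored from the CFP 486 nm/YFP 530 nm FRET ratio 45 min after adding 0.125 microM importin beta to 50 nM Rango biosensor preincubated 5 min with compound (room temperature, PBS with DTT, Tween-20, BSA). No-importin wells as positive control.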
An asterisk follows results filed as active; u = inconclusive; x = not tested or not shown; & = joins results of further samples. This is a subset; rates above refer to the full screens.

Rango complex inh,GLA inh pH 4.5,miR-21 reporter,mol,Rango dissoc inh
2.9%,x,-1.9%,COCCCNC(=S)NNC(=O)c1cc(-c2cccnc2)nc2ccccc12,11.4%
4.7%,-3.8,-6.3%,COC(=O)CCCCNC(=O)Nc1ccccc1,1.3%
-0.8%,2.2,-1.0%,CC(c1ccccc1)C1CC(=O)N(c2cc(Cl)ccn2)C1=O (centres undefined),-13.2%
-0.1%,7.2,-0.4%,CN1CCN(NC(=S)NC2CCCCC2)CC1,24.2%
-0.2%,-1.3,-2.5%,NC(=O)Cn1nnc(-c2ccc(CN3CCCCC3)cc2)n1,10.7%
3.5%,1.6,0.5%,Cc1cc(C(C)(C)C)oc1C(=O)N(CC(=O)NC1CCCC1)Cc1ccccc1,-2.9%
4.2%,x,x,O=C(NCCCN1CCCC1=O)c1cccc(S(=O)(=O)NCc2ccccc2)c1,8.8%
0.1%,12.0,-0.3%,CCOC(=O)N1CCN(C(=O)CSc2nnc(-c3c[nH]c4ccccc34)n2CCOC)CC1,-3.4%
-1.9%,x,-0.4%,CCc1cccc(C)c1NC(=O)CSc1nc(C)c(C)o1,4.7%
u,-1.1,-20.7%,Clc1ccc(CSc2ccc(-c3ccccn3)nn2)cc1,-5.5%
3.0%,8.8,-9.0%,COc1ccccc1NC(=O)c1ccc(NS(=O)(=O)c2cccc3cccnc23)cc1,0.5%
u,-9.7,4.7%,CC1=C(C(=O)OCCOc2ccccc2)C(c2ccc(C)o2)C2=C(CC(C)(C)CC2=O)N1 (centres undefined),u
0.6%,x,19.6%,COc1cccc(-c2nc(C(=O)NCCCN3CCOCC3)cc3c2[nH]c2ccccc23)c1,-16.1%
0.4%,7.5,-3.4%,CCOC(=O)C(C)Sc1nc2c(c(=O)[nH]c(=O)n2C)n1C/C=C(/C)Cl (centres undefined),1.2%
-2.5%,-13.4,-11.7%,O=C(NNC(=O)c1cc(-c2ccc(Cl)c(Cl)c2)nc2ccccc12)Nc1ccccc1,11.8%
0.0%,0.7,-1.1%,COc1ccc(NC(=O)Cc2c(SC)c3ccccc3n2Cc2ccccc2)cc1,-1.3%
2.3%,-3.1,-53.0%,S=C(c1ccc(-c2ccc(Br)cc2)o1)N1CCOCC1,-6.2%
-1.0%,x,-9.6%,COc1ccc(CC(=O)NC2CCCCCC2)c(OC)c1,0.3%
-4.3%,0.9,3.1%,CC1CCN(CC(=O)Nc2ccc(S(=O)(=O)NC3CC3)cc2)CC1,-2.7%
-0.4%,0.9,u,CN(C)S(=O)(=O)c1cccc(NC(=O)COC(=O)C2(c3ccccc3F)CCCC2)c1,0.3%
-2.4%,x,x,CCN(CC)CCNC(Cc1ccccc1)c1cccc(OC)c1 (centres undefined),0.7%
-0.6%,4.9,-3.7%,O=C(O)c1ccnc(SCC(=O)c2ccccc2)c1,-12.3%
5.2%,x,0.2%&3.3%,COC(=O)C(C)Sc1nc2c(cnn2-c2ccc(F)cc2)c(=O)[nH]1 (centres undefined),-4.1%
-3.1%,x,-9.4%,COc1ccc(C(=O)c2coc3ccc(OC(C)=O)cc23)cc1,0.4%
-2.7%,-0.2,-1.9%,Cc1ccc(S(=O)(=O)N2CCC(=O)N(C(CO)Cc3ccccc3)CC2)cc1 (centres undefined),1.4%
0.2%,6.4,-3.4%,O=C(/C=C/c1ccccc1[N+](=O)[O-])NCc1ccncc1,1.3%
-0.6%,3.2,3.1%,COc1ccc(OC)c(S(=O)(=O)N2CCNCC2)c1,-15.9%
0.5%,-0.5,-32.4%,CC1CCCCC1NC(=O)c1ccc(N2CCCC2=O)cc1 (centres undefined),1.2%
8.1%,x,x,CCOc1ccc(NC(=O)COc2ccc(C(=O)NCc3cccc(OC)c3)cc2OC)cc1,4.8%
-0.2%,1.1,-3.5%,CCOC(=O)CSc1nc2ccccc2c(=O)n1CC,2.2%
-1.8%,-1.7,0.5%,CN(C)S(=O)(=O)N1CCC(CCCC2CCN(S(=O)(=O)N(C)C)CC2)CC1,-3.8%
-0.4%,x,x,CCN1C(c2ccccc2)=C(c2ccccc2)S/C1=C\C=C1/SC(=S)N(C)C1=O,-4.2%
0.0%,x,x,Cc1ccc(C2=CC(=O)C[C@H](c3ccc4c(c3)OCO4)C2)cc1,-4.1%
-1.1%,-4.4,-11.9%,CCOc1ccc(CCNC(=O)Cn2cccc2C(=O)c2ccccc2)cc1OCC,-1.0%
1.1%,8.7,-6.9%,O=C(NCCc1nc2ccccc2[nH]1)Nc1ccccc1,0.0%
1.9%,-4.3,-1.6%,COc1ccc(C(=O)N2CCOCC2)cc1S(=O)(=O)N1CCCc2ccccc21,11.3%
-5.8%,-7.8,-2.1%,CCn1c(SCC(=O)NCc2ccccc2)nc2c(c1=O)SC(C)C2 (centres undefined),17.0%
u,6.4,-1.1%,CCN(CC)C(=O)c1sc(NC(=O)c2ccc3c(c2)OCO3)c(C#N)c1C,u
0.9%,x,7.3%,CN(C)S(=O)(=O)N1CCC(Oc2cccc(C(=O)N3CCCCCCC3)c2)CC1,11.5%
0.4%,4.8,-0.6%,Cn1c(SCC(=O)Nc2ccc3cn[nH]c3c2)nnc1-c1cnccn1,6.7%
6.2%,-10.7,-4.8%,O=C(Nc1cccc(S(=O)(=O)Nc2ccccc2Cl)c1)c1ccc(N2CCCC2)c([N+](=O)[O-])c1,-3.7%
-0.2%,5.8,-0.8%,COc1cc(C(=O)N[C@@H](C)C(=O)NCc2ccco2)cc(OC)c1OC,1.1%
0.1%,x,x,O=C(C1CN(C(=O)c2cc3cc(Cl)ccc3o2)c2ccccc2O1)N1CCCCC1 (centres undefined),-2.3%
-4.8%,x,-8.0%,CC(Oc1ccc2c(-c3ccccc3)cc(=O)oc2c1)C(=O)N1CCC[C@@H]1C(N)=O (some centres undefined),2.1%
5.5%,-6.3,13.7%,O=C(C1CCCCN1S(=O)(=O)c1ccccc1)N1CCN(C(c2ccccc2)c2ccccc2)CC1 (centres undefined),11.2%
5.4%,x,2.1%,COc1ccccc1N1CCN(C(=O)C2CCCN(c3ncnc4c3nc3n4CCCCC3)C2)CC1 (centres undefined),-7.3%
3.4%,2.0,-2.8%,O=C(O)c1ccc(O)c(O)c1,1.1%
4.5%,0.8,0.2%,COc1cccc(CN2CCN(Cc3ccon3)CC2CCO)c1 (centres undefined),-14.9%
2.1%,7.4,7.3%,COC(=O)c1cccc(Oc2cccc(C(F)(F)F)c2)n1,-11.8%
-3.1%,2.4,-18.8%,C/C(=N\NC(=O)COc1ccc(C(C)(C)C)cc1)c1ccc(N2CCOCC2)cc1,0.4%
-3.3%,-2.8,29.0%,S=C(NCc1ccc(Cl)cc1Cl)NC1CCCCC1,11.4%
-0.6%,1.9,-6.0%,CC(NC(=S)Nc1ccccc1)C1COc2ccccc2O1 (centres undefined),0.8%
5.3%,x,x,C=C(C)CSC1=C(C#N)C(c2ccccc2)CC(=O)N1 (centres undefined),3.8%
-3.5%,7.6,14.3%,Cc1cccc(-c2noc(CCCC(=O)Nc3cccnc3)n2)c1,-1.6%
-0.6%,2.3,-1.7%,COC(=O)c1cc(NC(=O)CC2C(=O)NCCN2C(=O)c2ccc(F)cc2)cc(C(=O)OC)c1 (centres undefined),-12.0%
0.5%,-3.3,-31.6%,C/C(N)=C(/C#N)C(=O)CSc1ncnc2ccccc12,-8.3%
3.2%,x,-22.7%,O=C(Nc1ccc(NC(=O)c2cccc([N+](=O)[O-])c2)cc1)c1cccc([N+](=O)[O-])c1,15.1%
3.8%,-7.1,-1.4%,O=C(COC(=O)CNS(=O)(=O)c1ccc2ccccc2c1)Nc1ccc2c(c1)OCO2,-7.2%
0.4%,x,x,O=C(NCCCN1CCOCC1)c1ccc(S(=O)(=O)Nc2ccccc2F)cc1,-3.4%
2.8%,x,x,CN(c1ccccc1)S(=O)(=O)c1cccc(NC(=O)c2nn(C)c(=O)c3ccccc23)c1,13.2%

Reprinted at random: two records from the list, in no set order.
Rango complex inh,GLA inh pH 4.5,miR-21 reporter,mol,Rango dissoc inh
-3.1%,x,-9.4%,COc1ccc(C(=O)c2coc3ccc(OC(C)=O)cc23)cc1,0.4%
u,-1.1,-20.7%,Clc1ccc(CSc2ccc(-c3ccccn3)nn2)cc1,-5.5%

(further entries)
Rango complex inh,GLA inh pH 4.5,miR-21 reporter,mol,Rango dissoc inh
-2.2%,2.8,7.6%,COc1cc(C(=S)N2CCOCC2)ccc1OS(=O)(=O)c1ccc(NC(C)=O)cc1,-17.5%
1.3%,-0.3,-62.2%,O=C(O)c1cccc(N=NN2CCCCCC2)c1,-5.9%
-0.8%,-7.3,-12.3%,COc1ccc(/C=C2/C(=O)OCc3cc(OC)c(OC)cc32)c(OC)c1,0.3%
-2.1%,x,x,Cc1ccc(S(=O)(=O)NCC(=O)OCC(=O)N2CCN(C(=O)c3ccco3)CC2)cc1C,10.3%
1.0%,10.4&-2.2,-2.7%,COC(=O)[C@@]1(Cc2ccc(F)cc2)[C@H]2c3cc(C(=O)N(C)C)n(CCc4ccccn4)c3C[C@H]2CN1C(=O)c1ccccc1,-5.5%
x,4.4,-3.6%,Cc1ccc2nc(Nc3nc(=O)c4ccccc4n3C)nc(C)c2c1,x
3.3%,x,-48.6%,Cc1c(C(=O)NC2CCC(C)CC2)oc2ccccc12 (centres undefined),-10.1%
5.4%,-28.0,-2.8%,CC(c1ccccc1)n1c(-c2cccs2)nc2c(c(=O)c3ccccc3n2C)c1=O (centres undefined),29.8%
0.3%,x,x,O=C(CSc1ccc2nnc(-c3cccs3)n2n1)N1CCOCC1,-5.1%
-4.7%,1.4,-6.4%,O=C1CN(C(=O)COC(=O)C2=COCCO2)c2ccccc2N1,-0.8%
5.7%,x,x,COc1ccc(CCN2CC(C(=O)OCC(=O)NCc3ccccc3Cl)CC2=O)cc1OC (centres undefined),-6.0%
-0.8%,x,x,O=C(CCN1CCC2CCC(C2)C1)c1ccc(F)cc1 (centres undefined),0.0%
-0.3%,x,x,O=C(CCc1ccccc1Cl)Nc1cc(S(=O)(=O)N2CCOCC2)ccc1N1CCCC1,-3.8%
-0.2%,-0.5,-5.1%,Cc1ccc(N)cc1S(=O)(=O)N(C)C,-14.3%
u,x,7.1%,CCOc1ccc(-c2nc(N)nc(C)c2-c2ccc(Cl)cc2)c(O)c1,-6.9%
0.4%,x,-8.5%,Cc1ccc(NC(=O)NCCN2CCCCC2)cc1C,-3.0%
-0.8%,x,-0.1%,CCOc1ccc(NC(=O)c2ccc3[nH]c(=O)c(=O)[nH]c3c2)cc1,-8.1%
1.6%,1.3,2.8%,Cc1ccc2cc(CCNC(=O)c3ccc(C)c([N+](=O)[O-])c3)c(=O)[nH]c2c1,-2.9%
-1.1%,-16.9,-16.6%,C/C(=N/NC(=O)c1cnccn1)c1ccncc1,27.7%
-4.3%,x,-0.4%,O=C(CN(C(=O)CNS(=O)(=O)c1ccc(F)cc1)c1ccc(F)cc1)NCc1ccco1,-6.6%
0.4%,5.1,-1.0%,COc1ccc(/C=N/N2CCN(C)CC2)c(OC)c1OC,7.0%
2.3%,-8.0,-0.9%,NCc1ccc2[nH]c(=O)[nH]c2c1,6.1%
-1.1%,x,-8.2%,O=C(Cc1nnc(NC(=O)c2ccccc2)s1)N/N=C/c1ccc(O)cc1,-10.9%
-0.9%,17.7,-33.5%,CCOC(=O)c1sc2nc(N3CCOCC3)c3c(c2c1N)CCC3,-3.9%
-2.6%,-1.2,-0.9%,Cc1ccc(Cl)c(OCCN2CCCC(C)C2)c1 (centres undefined),-6.4%
-0.8%,-5.0,0.4%,Cc1ccc(S(=O)(=O)Nc2ccc(NC(=O)CN3CCCCC3)c(Cl)c2)cc1,-2.3%
-2.3%,x,u,COc1ccc(-n2c(=S)[nH]c3cc(C(=O)Nc4ccc(C)c(F)c4)ccc3c2=O)c(OC)c1,-1.5%
u,x,x,COc1ccc(C(=O)NNC(=O)Cc2coc3cc(OC)ccc23)cc1,-6.2%
6.3%,-9.8,15.4%,CCOC(=O)c1[nH]c(C)c(CN(C(C)=O)c2ccc(OCC)cc2)c1C,5.6%
3.6%,x,x,O=C1CC2(CCN(S(=O)(=O)c3ccccc3)CC2)Oc2ccccc21,4.3%

Source: PubChem BioAssay (National Center for Advancing Translational Sciences (NCATS))
